# Bioassay records: PubChem BioAssay, several laboratories
# UUG fidelity = modulators of yeast start codon fidelity, primary screen, whole organism, S. cerevisiae, single point, plate reader. S. cerevisiae UUG-firefly luciferase reporter, luminescence/redox ratio. activity score, % at 18.7 µM. actives 0.13% (n = 350,000). AID 602363, 2012;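 active = replicate mean at a twofold rise or more, about +100% in these data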;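 also: firefly luciferase made from a UUG start codon reports start codon fidelity; reporter light over untreated wells divided by growth signal over untreated wells; some hits fall short of that in this replicate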
# PABP FP inh = PABP poly(A) RNA binding inhibitors, primary screen, biochemical, fluorescence polarization, uHTS; inhibition, % at 35 µM; actives 1% (n = 290,000); Polyadenylate-binding protein 1 (Homo sapiens), P11940; AID 2014, 2009;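 active = 50% or more with normal probe brightness, or confirmed in later tests; about a fifth of its hits are not listed in these tables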;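 also: calls also rest on retests at 20 µM and on dose response follow-up; controls were probe without protein and protein plus probe with vehicle; some compounds called inactive have numbers as strong as hits; many hits fall short of the cut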
# CSC inhib = cancer stem cell viability inhibitors, primary screen, luminescence; cancer stem cell-like cells viability; inhibition, % at 7.5 µM; actives 1.1% (n = 300,000);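 active = mean at 75% or more and at least half the replicates too; tested in HMLE shEcad cells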;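 also: 0% = median of negative and 100% = median of positive control wells; the first replicate is given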
# MT1-MMP act inh = blockers of MT1-MMP proenzyme processing, primary screen, HT1080 RFP-PRO-GFP cells, GFP/RFP fluorescence; Matrix metalloproteinase-14 (Homo sapiens), P50281; GFP/RFP ratio fluorescence, overnight; percent of plate control window, DMSO zero; GFP/RFP ratio change, % at 20 µM; actives 0.061% (n = 360,000);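 active = GFP/RFP ratio change of at least 30% with cell ATP level not reduced by more than half and red fluorescence within 50% of control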; also: strong numbers were not always called active
#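 Material – HT1080 RFP-PRO-GFP cells · Control set – DMSO wells and RFP-L50D-GFP cells · Incubation – overnight cell settling, then overnight compound exposure, 37 °C, 5% CO2 · Compound dosing – single-point 20 µM compound, 1% DMSO · Read-out – GFP/RFP fluorescence ratio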
# eIF4H inh = human eIF4H binding inhibitors, primary screen, translation initiation inhibitor project, biochemical, uHTS, fluorescence polarization. Eukaryotic translation initiation factor 4H (Homo sapiens), Q15056. eIF4H fluorescence polarization binding assay. inhibition, % at 35 µM. actives 0.94% (n = 290,000);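 active = 50% or more with normal probe brightness, or confirmed in later tests; about a fifth of its hits are not listed in these tables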;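 also: calls also rest on retests at 20 µM and on dose response follow-up; 0% = protein and probe with vehicle and 100% = probe without protein; strong numbers were not always called active; many hits fall short of the cut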
# Rce1 inh = yeast Rce1p protease inhibitors, primary screen, biochemical, fluorescence, cell-free homogeneous | calls only | actives 0.27% (n = 290,000) | yeast membranes, quenched prenylated peptide cleavage fluorescence | CAAX prenyl protease 2 (Saccharomyces cerevisiae (strain ATCC 204508 / S288c)), Q03530;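 active = fall in fluorescence gain of 50% or more versus controls, with final raw signal at or below 3038400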;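 also: plate controls were neutral control wells for no effect and wells lacking membranes for full effect; tested at 10 µM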
# Target sequence (Q03530 whole entry, looked up): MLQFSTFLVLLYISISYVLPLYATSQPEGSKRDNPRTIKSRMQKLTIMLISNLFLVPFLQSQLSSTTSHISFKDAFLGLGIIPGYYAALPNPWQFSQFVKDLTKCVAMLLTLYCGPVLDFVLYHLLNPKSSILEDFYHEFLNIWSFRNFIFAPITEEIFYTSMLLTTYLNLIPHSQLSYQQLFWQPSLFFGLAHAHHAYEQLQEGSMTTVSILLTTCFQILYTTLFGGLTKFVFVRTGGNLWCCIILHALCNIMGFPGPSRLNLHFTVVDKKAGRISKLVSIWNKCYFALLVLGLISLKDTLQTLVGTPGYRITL
# HIV Env fusion = inhibitors of HIV-1 Env-driven cell-cell fusion, primary screen, HeLa-JRFL effector, CEM21 target cells, luciferase. inhibition, % at 12.3 µM. actives 1.1% (n = 360,000). AID 651610, 2012;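 active = mean replicate inhibition score of at least 50 and every replicate individually at or above 50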;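 also: 0% = plate neutral controls and 100% = maraviroc near 300 nM; one replicate is shown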
# MT1-MMP act inh RFP = further read-out of MT1-MMP act inh, marked with its call; RFP signal change, %; measured here: RFP expression control read;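 0 = vehicle wells; hits needed this value within 50% of zero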
# Numbers without * were called inactive; i = inactive; . = no result given. Only part of the results is shown; count on the stated rates, not on these rows.
no.	compound	UUG fidelity	PABP FP inh	CSC inhib	MT1-MMP act inh	MT1-MMP act inh RFP	eIF4H inh	Rce1 inh	HIV Env fusion
1	CS(=O)(=O)c1ccc(C(=O)OC2CCOC2=O)cc1[N+](=O)[O-] (stereo not drawn)	-6.2	17.8	-5.2	-1.2	0.1	16.4	i	-2.5
2	FC(F)(F)c1ccc(CN2CCN(Cc3ccco3)CC2)cc1	-6.7	-4.9	-20.5	-0.4	2.2	-6.6	i	6.3
3	CCCCn1c(N)c(N(CC(C)C)C(=O)CN2C(=O)c3ccccc3C2=O)c(=O)[nH]c1=O	.	.	-3.8	0.0	0.4	.	i	0.0
4	COC(=O)c1ccccc1NC(=O)c1ccc(COc2cccc3ccccc23)o1	-11.9	5.9	31.2	-8.6	3.9	-2.3	i	6.3
5	Cn1cccc1C(=O)c1ccc(Cl)cc1Cl	-0.1	6.2	-2.1	0.2	3.5	-11.3	i	-2.5
6	COc1cccc(-c2ccc3c(c2)C2CC3CCN2C(=O)c2ccc(Cl)cc2)c1 (stereo not drawn)	-3.9	.	.	0.3	-2.2	.	.	25.9
7	O=C(CSc1nnc(C2CC2)n1C1CC1)c1ccc(Br)s1	-10.2	.	-8.2	-4.0	2.9	.	.	-19.0
8	N/C(=N\S(=O)(=O)c1cc(C(F)(F)F)cc(C(F)(F)F)c1)c1ccccc1	-2.5	3.8	2.1	0.9	0.7	-12.4	i	8.4
9	O=C(N/N=C/c1cn(-c2ccccc2)nc1-c1cccs1)c1ccccc1F	-12.9	9.4	52.5	1.6	-8.9	-0.1	i	.
10	CC1Cc2ccccc2N1C(=O)CN1CCCCC1 (stereo not drawn)	.	-4.4	-7.6	0.0	2.2	18.3	i	-1.7
11	CCOc1ccc(C(C)=O)cc1COc1ccc(-c2nnco2)cc1	-5.7	-8.4	-3.0	-1.4	1.6	4.8	i	-50.9
12	Nc1c(NC=O)c(=O)n(Cc2ccccc2)c(=O)n1Cc1ccccc1	.	.	-20.9	-0.9	-2.1	.	i	4.7
13	COc1ccc(C(=O)c2ccc(C)cc2)c(OC)c1OC	5.7	.	.	-3.5	-3.6	.	.	-10.9
14	O=C1/C(=C/c2ccc([N+](=O)[O-])cc2)CCC1C1CCCC1 (stereo not drawn)	-7.0	7.7	17.9	3.7	-2.6	-1.5	i	-6.2
15	Cc1c(C(=O)N2CCC[C@H]2CO)oc2c(F)cccc12	-11.2	-3.8	-11.4	9.3	-8.3	-11.8	i	-27.1
16	O=[N+]([O-])c1cccc2c(S(=O)(=O)N3CCCCC3)cccc12	-7.8	-2.8	-1.0	0.7	-1.3	1.4	i	25.2
17	CCc1ccc(N(C(=O)Cn2nnc(-c3ccccc3)n2)C(C(=O)NC2CCCCC2)c2ccccn2)cc1 (stereo not drawn)	-29.3	4.5	3.2	-7.1	-7.3	-23.9	i	79.7*
18	CCOC(=O)N1CCN(C(=O)CN(c2ccccc2)S(C)(=O)=O)CC1	.	-12.5	-12.4	4.1	6.1	-2.0	i	-8.3
19	CCCCn1c(N)c(N(CC(C)C)C(=O)Cc2ccc3c(c2)OCCO3)c(=O)[nH]c1=O	.	.	-1.5	1.1	0.0	.	i	-217.0
20	S=C(NCc1ccccc1)N/N=C/c1cccs1	-31.9	-1.9	-7.4	4.9	-3.7	8.7	i	-10.7
21	Cc1cccc(C)c1C(O)c1ncc(-c2ccccc2F)[nH]1 (stereo not drawn)	-15.8	.	.	-1.1	-0.3	.	.	-17.0
22	CC(=O)Nc1ccc(-c2ccnc3c2CC(C)(C(=O)NC(C)C)O3)cc1 (stereo not drawn)	-12.7	.	.	0.6	2.2	.	.	28.4
23	Nc1nonc1N/N=C\c1ccccc1	-5.8	7.7	-8.3	1.1	-1.2	9.1	i	27.9
24	CC(C)(C)OC(=O)NCCCC(CCCNC(=O)OC(C)(C)C)C(=O)O	-2.8	-14.8	1.4	2.2	0.8	-13.8	i	.
25	O=C(CSc1nc(Cc2ccccc2)nc2ccccc12)Nc1nc2c(s1)CCCC2	-6.7	11.5	.	-0.3	-3.8	-6.7	i	.

# The list goes on:
no.	compound	UUG fidelity	PABP FP inh	CSC inhib	MT1-MMP act inh	MT1-MMP act inh RFP	eIF4H inh	Rce1 inh	HIV Env fusion
26	COc1ccc(C(=O)NNC(=O)CSc2nnc3ccccn23)cc1OC	0.6	.	-17.5	-2.2	0.3	.	.	-3.4
27	CN1OC[C@@H]2CN[C@H](c3cccc(-c4ccccc4)c3)C[C@@H]21	-7.3	.	.	3.0	6.7	.	.	-33.2
28	CCCCN(c1ccc(C(=O)OC)cc1)S(=O)(=O)c1ccccc1	.	4.0	-6.2	-0.8	3.8	-10.8	i	5.7
29	COc1cccc(OC)c1C(=O)Nc1nc(COc2ccccc2)cs1	-4.4	-8.8	1.7	-1.9	-2.0	7.9	i	13.6
30	COC(=O)c1c(C)[nH]c(C(=O)COC(=O)Cn2cc(C(F)(F)F)ccc2=O)c1C	-7.6	.	.	11.1	1.5	.	.	38.7
31	CS(=O)(=O)c1ccccc1C(=O)Nc1ccccc1Cc1ccccc1	.	9.3	-12.9	0.3	2.4	7.4	i	-1.3
32	COc1ccc(-c2nnn(CC(=O)N(CCN3CCOCC3)C(C(=O)NC3CCCCC3)c3ccco3)n2)cc1 (stereo not drawn)	.	-1.0	-4.9	-1.7	0.5	-7.1	i	30.9
33	Cn1cc(/C=C(\NC(=O)c2ccccc2Cl)C(=O)NCCN2CCOCC2)c2ccccc21	-9.4	3.8	7.0	-2.1	-3.3	-8.8	i	-1.3
34	Cn1nc(C(=O)NCc2ccc(F)cc2)c2ccccc2c1=O	-13.4	.	7.4	6.1	-1.4	.	i	-18.7

# Reformatted with values under each structure: 2 of the compounds above.
# Below each compound: UUG fidelity | PABP FP inh | CSC inhib | MT1-MMP act inh | MT1-MMP act inh RFP | eIF4H inh | Rce1 inh | HIV Env fusion
[30] COC(=O)c1c(C)[nH]c(C(=O)COC(=O)Cn2cc(C(F)(F)F)ccc2=O)c1C
 : -7.6 | . | . | 11.1 | 1.5 | . | . | 38.7
[31] CS(=O)(=O)c1ccccc1C(=O)Nc1ccccc1Cc1ccccc1
 : . | 9.3 | -12.9 | 0.3 | 2.4 | 7.4 | i | -1.3

# 15 compounds out of the list, sorted by SMILES length, low to high:
no.	compound	UUG fidelity	PABP FP inh	CSC inhib	MT1-MMP act inh	MT1-MMP act inh RFP	eIF4H inh	Rce1 inh	HIV Env fusion
23	Nc1nonc1N/N=C\c1ccccc1	-5.8	7.7	-8.3	1.1	-1.2	9.1	i	27.9
20	S=C(NCc1ccccc1)N/N=C/c1cccs1	-31.9	-1.9	-7.4	4.9	-3.7	8.7	i	-10.7
34	Cn1nc(C(=O)NCc2ccc(F)cc2)c2ccccc2c1=O	-13.4	.	7.4	6.1	-1.4	.	i	-18.7
21	Cc1cccc(C)c1C(O)c1ncc(-c2ccccc2F)[nH]1 (stereo not drawn)	-15.8	.	.	-1.1	-0.3	.	.	-17.0
29	COc1cccc(OC)c1C(=O)Nc1nc(COc2ccccc2)cs1	-4.4	-8.8	1.7	-1.9	-2.0	7.9	i	13.6
28	CCCCN(c1ccc(C(=O)OC)cc1)S(=O)(=O)c1ccccc1	.	4.0	-6.2	-0.8	3.8	-10.8	i	5.7
16	O=[N+]([O-])c1cccc2c(S(=O)(=O)N3CCCCC3)cccc12	-7.8	-2.8	-1.0	0.7	-1.3	1.4	i	25.2
22	CC(=O)Nc1ccc(-c2ccnc3c2CC(C)(C(=O)NC(C)C)O3)cc1 (stereo not drawn)	-12.7	.	.	0.6	2.2	.	.	28.4
25	O=C(CSc1nc(Cc2ccccc2)nc2ccccc12)Nc1nc2c(s1)CCCC2	-6.7	11.5	.	-0.3	-3.8	-6.7	i	.
27	CN1OC[C@@H]2CN[C@H](c3cccc(-c4ccccc4)c3)C[C@@H]21	-7.3	.	.	3.0	6.7	.	.	-33.2
33	Cn1cc(/C=C(\NC(=O)c2ccccc2Cl)C(=O)NCCN2CCOCC2)c2ccccc21	-9.4	3.8	7.0	-2.1	-3.3	-8.8	i	-1.3
30	COC(=O)c1c(C)[nH]c(C(=O)COC(=O)Cn2cc(C(F)(F)F)ccc2=O)c1C	-7.6	.	.	11.1	1.5	.	.	38.7
19	CCCCn1c(N)c(N(CC(C)C)C(=O)Cc2ccc3c(c2)OCCO3)c(=O)[nH]c1=O	.	.	-1.5	1.1	0.0	.	i	-217.0
17	CCc1ccc(N(C(=O)Cn2nnc(-c3ccccc3)n2)C(C(=O)NC2CCCCC2)c2ccccn2)cc1 (stereo not drawn)	-29.3	4.5	3.2	-7.1	-7.3	-23.9	i	79.7*
32	COc1ccc(-c2nnn(CC(=O)N(CCN3CCOCC3)C(C(=O)NC3CCCCC3)c3ccco3)n2)cc1 (stereo not drawn)	.	-1.0	-4.9	-1.7	0.5	-7.1	i	30.9
